Screens (PubChem BioAssay)
gsp ag – activates gsp, the McCune-Albright syndrome mutation. AID 624287. 340,000 compounds, 0.13% hits. Potency, µM (series often up to 76.9 µM), without a hit: at the highest dose activation (cAMP increase), usual class: activators. gsp mutant cells, cAMP HTRF, 30 min; control for the full effect not named in the record; active = well fitted activation curve with a large enough effect; inconclusive = small, poorly fitted or top-dose-only effect, or another doubt; inactive = no such curve, though single readings can be large or run the other way; cell line not stated here;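 also: phosphodiesterase inhibitor Ro 20-1724 added with compounds to block cAMP breakdown; potency is read from the fitted curve at half-maximal effect; nearly all actives have a fitted effect of over 60% in size; about a fifth of the inactives were tested at one dose only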
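Cells in DMEM/10% FBS with G418 were pretreated with compounds in DMSO plus […] (300 uM stock) for 30 min at 37C. cAMP was measured by HTRF (cAMP-d2 plus anti-cAMP antibody-K) after 30 min at room temperature.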
Sfp PPTase inh – inhibitors of Bacillus subtilis Sfp phosphopantetheinyl transferase | Biochemical Sfp PPTase activity, qHTS | Potency, µM, without a hit: max response, negative = inhibition, usual class: inhibitors | 310,000 compounds, 3.5% hits; active = well fitted inhibition curve with a large enough effect; inconclusive = small, poorly fitted or top-dose-only effect, or another doubt; inactive = no such curve, though single readings can be large or run the other way;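 also: the enzyme is Sfp with the accession as filed and its product quenches rhodamine fluorescence; potency is read from the fitted curve at half-maximal effect; 0% = enzyme reaction without inhibitor and -100% = no enzyme wells; top concentration of the series not given in the record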
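Reaction rates are the 30-min fluorescence difference (ex 525, em 598 nm) in wells containing 15 nM Sfp, 5 uM rhodamine-CoA and 12.5 uM BHQ-2-YbbR at pH 7.6 with 10 mM MgCl2.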
TRPV1 potentiator – human TRPV1 potentiation | AID 540277 | 320,000 compounds, 0.02% hits | TRPV1-expressing cells, Fluo-8 calcium influx, capsaicin EC20 potentiation; host cell line not named in the record; control for the full effect not named in the record | potentiation, % at 8.33 µM | Q8NER1; active means potentiation above 80%; inconclusive means 30% to 80%; inactive means below 30%; also: 0% is about no effect
Target sequence (Q8NER1 whole entry, looked up): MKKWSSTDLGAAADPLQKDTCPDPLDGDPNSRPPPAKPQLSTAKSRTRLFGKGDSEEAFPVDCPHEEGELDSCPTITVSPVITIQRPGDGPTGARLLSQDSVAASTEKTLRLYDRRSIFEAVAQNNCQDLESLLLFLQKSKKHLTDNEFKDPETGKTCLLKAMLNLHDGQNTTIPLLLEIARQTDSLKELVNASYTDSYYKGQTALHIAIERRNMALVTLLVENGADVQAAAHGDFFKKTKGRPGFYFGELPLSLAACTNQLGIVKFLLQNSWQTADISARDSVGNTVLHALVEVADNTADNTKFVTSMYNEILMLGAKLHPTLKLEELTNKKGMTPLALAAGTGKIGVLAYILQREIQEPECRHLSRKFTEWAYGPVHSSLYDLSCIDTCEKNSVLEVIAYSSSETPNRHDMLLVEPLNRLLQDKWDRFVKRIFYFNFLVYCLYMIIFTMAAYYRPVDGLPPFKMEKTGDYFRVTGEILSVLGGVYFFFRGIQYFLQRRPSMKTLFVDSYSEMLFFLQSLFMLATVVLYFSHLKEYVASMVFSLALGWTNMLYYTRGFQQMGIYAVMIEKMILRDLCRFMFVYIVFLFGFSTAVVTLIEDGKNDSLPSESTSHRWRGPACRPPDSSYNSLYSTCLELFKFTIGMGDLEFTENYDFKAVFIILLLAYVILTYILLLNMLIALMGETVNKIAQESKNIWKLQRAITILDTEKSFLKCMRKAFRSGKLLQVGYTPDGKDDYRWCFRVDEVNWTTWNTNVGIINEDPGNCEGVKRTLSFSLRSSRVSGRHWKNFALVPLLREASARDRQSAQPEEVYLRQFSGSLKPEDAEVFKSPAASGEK
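TRPV1-expressing cells were cultured overnight at 35.5C and loaded with Fluo-8 calcium dye for 40 to 90 min at room temperature. After a 10 s baseline, compound was added and calcium influx was read kinetically for 3 min (ex 480/em 520 nm).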
D2 PAM – positive allosteric modulators of human D2 dopamine receptor. P14416. potentiation, % (test concentration not listed). DiscoveRx D2 beta-arrestin cells, luminescence, 90 min; 100% = 57 uM dopamine signal. 360,000 compounds, 0.23% hits; active = potentiation of 50% or more; inconclusive = 30% to 50%; inactive = 30% or less;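 also: compound concentration not given in the record; tested on top of an EC20 dose of dopamine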
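PathHunter D2 cells, attached overnight at 37 deg C, received compound in DMSO plus dopamine at EC20 (50 nM final) for 90 min at 37 deg C. Beta-arrestin recruitment was read as luminescence after 1 h with detection reagent at ambient temperature.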
ClpP mod – qHTS Assay for Activators of ClpP; ATP-dependent Clp protease proteolytic subunit (Bacillus subtilis (strain 168)), P80244; purified B. subtilis ClpP, FRET peptide cleavage, 20 min; Potency, µM (top dose mostly 57.5 µM), for the others: at the top dose activity change, negative = active; 340,000 compounds, 1.9% hits; active = well fitted falling curve with a large enough effect; inconclusive = small, poorly fitted or top-dose-only effect; inactive = no such curve, though single readings can be large or run the other way; also: potency is read from the fitted curve at half-maximal effect; the source files actives as falling curves though it sought activators and does not explain the sign; nearly all actives have a fitted effect of over 65% in size; many hits overshoot -100%
Target sequence (P80244 whole entry, looked up): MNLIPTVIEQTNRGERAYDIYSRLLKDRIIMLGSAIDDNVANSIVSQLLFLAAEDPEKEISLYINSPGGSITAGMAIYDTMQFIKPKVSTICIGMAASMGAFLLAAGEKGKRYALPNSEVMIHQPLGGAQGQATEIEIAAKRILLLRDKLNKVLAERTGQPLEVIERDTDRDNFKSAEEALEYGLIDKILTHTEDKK
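Buffer: 100 mM Tris/HCl pH8, 100 mM KCl, 0.05% low protease BSA, 2.5% glycerol, 0.01% Tween-20. ClpP 10 microg/mL final; 20 min RT; delta FRET normalized to ADEP and DMSO controls.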
Menin-MLL FL inh – menin-MLL binding inhibition, fluorescein peptide. 290,000 tested, under 10 active. FP activity change, % at 61.4 µM. AID 1766. Fluorescence polarization, fluorescein-MLL peptide displacement from menin; inconclusive = falling polarisation curve, or a change in total fluorescence; inactive = total fluorescence flat and polarisation flat or rising; no compound was filed as active; the % refers to the polarisation; negative = inhibition;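 also: % of control where 0% means no effect; inhibitors lower the polarisation; unlabelled MLL peptide was the positive control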
gsp antag – antagonists of gsp mutant (McCune-Albright syndrome); 340,000 compounds, 0.4% hits; gsp-mutant cells, cAMP HTRF, 30 min; control for the full effect not named in the record; Potency, µM (doses to about 76.9 µM), without a hit: at the top dose activity change, negative = inhibition, hits mostly inhibitors; active = falling curve of any shape with a large fitted effect; inconclusive = falling curve, mostly with a smaller effect; inactive = flat or rising curve; cell line not stated here;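 also: intracellular cAMP measured with PDE inhibitor Ro 20-1724 present during compound exposure; potency is read from the fitted curve at half-maximal effect; % is scaled to controls: 0 for no effect and ±100 for the full control effect; nearly all actives have a fitted effect of over 65% in size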
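Measurement of cellular cAMP by homogeneous time-resolved fluorescence following a 30 min compound exposure at 37C. The PDE inhibitor […] was present throughout; the assay buffer was DPBS with 0.05% BSA and 0.005% Tween 20.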
* marks the source's active call; other numbers are inactive results; ? = inconclusive; · = no result given; [ ] = dose if it differs, or a comment.

SMILES	gsp ag	Sfp PPTase inh	TRPV1 potentiator	D2 PAM	ClpP mod	Menin-MLL FL inh	gsp antag
CC(C)(C)c1ccc(OCC(=O)NC2CCS(=O)(=O)C2)cc1 (stereo unspecified)	-26.1%	15.9%	7.7	23.9	0.5%	2.6	2.1%
O=C(CSc1cccc(C(F)(F)F)c1)N1CCN(S(=O)(=O)c2ccccc2)CC1	-8.3%	3.2%	-5.1	-9.6	0.7%	1.3	-11.3%
CC(OC(=O)c1nc(Cl)ccc1Cl)C(=O)NC1CCCCC1C (stereo unspecified)	24.8%	·	5.3	-4.7	-0.1%	·	3.4%
COc1ccc(CN2CCNC(=O)C2CC(=O)NCC(C)(C)N2CCOCC2)cc1C (stereo unspecified)	20.1%	9.0%	24.5	-7.0	0.0%	·	4.2%
COc1ccc(CNC(=O)COC(=O)c2ccco2)cc1	19.2%[15.4 µM]	6.4%	-1.3	-4.1	-1.2%	1.7	7.9%
COc1ccc(OC2CCN(S(=O)(=O)c3ccc(OC)c(OC)c3)CC2)cc1	24.2%	3.1%	3.7	-3.4	-2.7%	6.7	-25.9%
CC(=O)Nc1ccc(C=Cc2ccc([N+](=O)[O-])cc2)cc1	-3.4%	·	·	8.3	0.8%	·	·
O=C(OCc1ccccc1)N1CCC2CC1c1ccc(-c3ccc4c(c3)OCO4)cc12 (stereo unspecified)	?	·	·	1.2	-29.7%	·	·
O=C(Nc1c(C(=O)N2CCC(N3CCCCC3)CC2)oc2ccccc12)c1ccc(F)cc1	13.1%	5.5%	?	-23.0	-8.4%	·	3.5%
COc1ccccc1CC1(C)NC(=O)N(CC(=O)Nc2cc(C)on2)C1=O (stereo unspecified)	5.3%	-0.6%	-12.7	-3.2	-0.4%	1.5	4.8%
O=S(=O)(c1cccc2cccnc12)N1CCN(c2ccccn2)CC1	11.7%[15.4 µM]	18.6%	22.4	-6.7	·	-0.6	10.3%
COc1ccc(NC(C)=O)cc1NC(=O)CSc1nnc(-c2cccnc2)n1C	-64.9%[inhibitor]	10.1%	0.2	-9.7	-1.7%	12.7	7.4%
COc1ccc(CCNC(=O)Cn2c(=O)c3cccn3c3cccnc32)c(OC)c1OC	?	-9.7%	8.9	-8.5	-6.6%	·	12.3%
Cc1cc(Sc2ncnc(N)c2[N+](=O)[O-])ncn1	-2.7%[15.4 µM]	50.1µM*	-16.5	-18.0	-2.5%	0.4	-18.5%
Cc1ccccc1NC(=O)C(=O)N/N=C/c1cccc(Br)c1	15.1%	24.8%	-10.5	22.2	-0.5%	-0.9	-14.8%
CCOc1ccc(Nc2nc(C)cc(C)c2C#N)cc1	6.2%	-6.4%	-14.6	3.2	-8.5%	1.4	2.6%
Cc1ccc2cccc([N+](=O)[O-])c2n1	-22.1%	·	·	-13.6	1.7%	·	·
CN1CCC(OC(=O)c2ccc(Cl)cc2Cl)CC1	12.6%	24.3%	-5.0	-14.0	2.4%	-2.3	-15.1%
COc1ccc(/C=C/C(=O)OCC(=O)NC2CCCCCC2)cc1OC	9.1%	·	·	3.4	-23.5%	·	-2.4%
Cc1ccc(S(=O)(=O)CCC(=O)OCC(=O)NCc2ccc(Cl)cc2)cc1	?	-2.3%	4.2	27.5	3.2%	-0.1	-2.2%
Cc1c(C(=O)Nc2c(F)cccc2F)sc2ncnc(N3CCN(c4ccccc4)CC3)c12	-39.8%[inhibitor]	6.2%	-2.3	-4.0	-9.5%	-0.2	9.3%
Cc1ccc(O)c(-c2cc(C(F)(F)F)[nH]n2)c1	-0.2%	13.3%	-8.4	28.8	-15.0%	-0.2	-15.5%
Cc1ccc(SCc2cc(=O)n3ccsc3n2)c(C)c1	·	7.9%	-3.0	·	·	0.6	·
CO/N=C(\C)C(Cc1ccc(Cl)nc1)Cc1ccc(Cl)nc1	25.5%	-3.2%	2.4	-3.5	-0.3%	-20.0	5.1%
O=C(C=Cc1ccco1)c1ccco1	7.8%[15.4 µM]	·	·	4.9	-4.5%	·	1.5%
SMILES	gsp ag	Sfp PPTase inh	TRPV1 potentiator	D2 PAM	ClpP mod	Menin-MLL FL inh	gsp antag
COC(=O)c1ccc(Cl)c(NC(=O)CN(c2ccc3c(c2)OCO3)S(C)(=O)=O)c1	10.4%	22.2%	2.7	-9.8	0.1%	2.4	10.8%
COCCN(C(=O)CSc1nnc(-c2ccc(C)c(C)c2)o1)c1c(N)n(CC(C)C)c(=O)[nH]c1=O	20.7%[15.4 µM]	·	7.3	1.3	·	·	3.1%
O=C(NC(NC(=S)Nc1ccccc1C(=O)O)C(Cl)(Cl)Cl)c1ccco1 (stereo unspecified)	12.6%	39.8µM*	9.4	-4.6	28.2µM*	2.1	-0.6%
Cn1cnnc1SCC(=O)N1CCN(C(=O)c2ccco2)CC1	-3.9%[15.4 µM]	9.6%	-1.6	-5.3	·	2.6	6.3%
COc1c2ccoc2nc2c(OC)c(OCC(OC(C)=O)C(C)(C)O)ccc12 (stereo unspecified)	-1.1%	6.8%	-1.6	-3.1	3.5%	-1.2	-8.8%
Cc1ccc(CN2C(=O)C3CCCN3c3ccc(S(=O)(=O)N4CCOCC4)cc32)cc1 (stereo unspecified)	·	21.5%	14.8	·	·	8.5	·
COc1ccc(-c2nnc(Nc3nc4c(OC)cccc4s3)o2)cc1	-4.9%	-17.8%	4.9	6.8	39.8µM*	-7.0	-22.2%
CCC(NC(=O)c1[nH]c(C)c(C(C)=O)c1C)c1ccc(Br)cc1 (stereo unspecified)	-9.3%[15.4 µM]	5.3%	-5.9	-12.7	·	-0.5	-17.2%
O=C(c1cnc(Cl)c(Cl)c1)N1CCN(S(=O)(=O)c2cccs2)CC1	-135.4%[inhibitor]	·	·	4.2	-2.0%	·	·
Nc1cc(N2CCCC2)c(Cl)cc1[N+](=O)[O-]	-6.6%[15.4 µM]	8.3%	-19.5	-7.8	-2.9%	-0.8	-0.8%
CCOc1cc2[nH]c(=O)n(CCCCCC(=O)NC3CCCC3)c(=O)c2cc1OCC	-69.5%[inhibitor]	5.1%	-8.0	-4.4	3.9%	·	-10.5%
CCC(=O)OCCNc1cc(Sc2nc3ccccc3[nH]2)c2nonc2c1[N+](=O)[O-]	?	17.8µM*	3.7	-47.6	-14.8%	-1.3	?
N/C(COc1cc(Cl)cc(Cl)c1)=N\O	-2.2%[15.4 µM]	13.8%	24.8	3.3	2.6%	2.2	-25.1%
CC(=O)c1cccc(N(CC(=O)Nc2ccccc2F)S(C)(=O)=O)c1	-24.8%	21.8%	4.7	1.2	·	-0.9	6.0%
CCOc1ccc(Br)cc1S(=O)(=O)NC1CC(C)(C)NC(C)(C)C1	-4.2%	13.9%	-15.1	-5.6	-0.1%	0.4	15.8%
O=C(O)c1ccccc1C(=O)Nc1ccc(Oc2cccc(C(F)(F)F)c2)nc1	0.0%	11.8%	8.2	0.7	·	0.9	3.8%
OC(CNC1Cc2ccccc2C1)COc1ccc(F)cc1 (stereo unspecified)	6.9%	5.8%	4.3	-16.3	·	2.8	10.6%
COc1ccc(Cc2nc3ccc(C(=O)NCc4ncc(C)[nH]4)cc3o2)cc1OC	-4.9%	10.4%	6.7	-21.0	-4.9%	-1.8	7.6%
NC1=NC(c2ccccc2)=NC1(NC(=O)c1ccccc1)C(Cl)Cl (stereo unspecified)	?	5.4%	0.7	-9.1	-5.0%	0.3	-23.5%
CS(=O)(=O)N(CC(=O)Nc1ccc2c(c1)OCO2)c1ccccc1	-2.4%	13.4%	22.3	-10.6	-0.5%	2.2	-1.8%
O=C(CN1CCCC1)Nc1ccc(OCc2ccccc2)cc1	-47.5%[inhibitor]	6.3%	-4.4	8.9	-4.5%	5.7	-8.7%
CCCc1cc(=O)oc2c(C)c(OCC(=O)NCCN3CCOCC3)ccc12	-0.6%	12.1%	3.5	-1.9	3.6%	-2.2	-4.9%
Cc1cc(S(=O)(=O)Nc2ccc(C(=O)NCC(c3ccco3)N(C)C)cc2)ccc1F (stereo unspecified)	?	·	5.0	-1.3	-1.3%	·	4.0%
Cc1ccc(CO/N=C/c2c(O)cc(C)oc2=O)cc1	-22.2%	-8.0%	5.6	-6.6	·	-1.7	-7.5%
CC(=O)c1ccccc1Oc1cc(NN2CCCCC2)c([N+](=O)[O-])cc1[N+](=O)[O-]	0.9%	5.2%	-11.2	-6.1	-0.7%	-1.0	?
SMILES	gsp ag	Sfp PPTase inh	TRPV1 potentiator	D2 PAM	ClpP mod	Menin-MLL FL inh	gsp antag
O=C(CCn1c(=O)oc2ccccc21)N(Cc1ccccc1)c1ccccc1	33.7%	14.8%	-6.5	7.9	0.3%	0.6	-4.9%
O=C(Nc1ccccn1)c1cc(-c2cccnc2)nc2ccc(Br)cc12	39.8µM*	-11.0%	-50.9	-14.8	0.5%	-0.2	13.4%
O=C(O)c1ccc(COc2c(F)c(F)cc(F)c2F)o1	0.3%	17.9%	0.9	-10.0	2.4%	0.3	-8.6%
O=[N+]([O-])c1ccc2c(c1)nc1n2CCN(CC2CCCO2)C1 (stereo unspecified)	-16.0%	16.0%	-10.7	-0.1	0.0%	0.3	-24.1%
COc1ccc(C(=O)Nc2ccc(CN3CCCCC3)cc2)cc1	-45.5%[inhibitor]	7.4%	-13.0	-24.0	-0.5%	-1.8	4.2%
N#CCCN(C(=O)COC(=O)CCc1ccccc1)c1ccccc1	-2.7%[15.4 µM]	8.5%	1.1	0.0	·	0.8	10.2%
O=C(COC(=O)c1cc(Cl)nc(Cl)c1)NCCc1ccc(F)cc1	-0.9%	·	·	13.6	3.1%	·	-4.1%
COCCCNC(=O)N1c2ccccc2Sc2ccccc21	-18.7%	14.5%	-7.0	-8.1	·	-1.5	-11.2%
COc1ccc(C2(c3ccc(OC)cc3)NC(=O)N(CC(=O)Nc3ccccc3C(F)(F)F)C2=O)cc1	-59.8%	14.3%	5.9	-3.7	-8.7%	·	4.5%
CSc1ccc(CCNC(=O)CCc2nnc3ccc(NCCCN4CCCC4=O)nn23)cc1	?	21.8%	6.9	-12.1	-4.4%	4.2	-1.8%
